YopH inh = blocks Yersinia enterocolitica YopH tyrosine phosphatase; fluorescence Ex485/Em525; inhibition, %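 (about 10 µM by stock and volumes)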; 140,000 compounds, 0.16% hits; AID 898;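 active = inhibition of 50% or more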;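 also: controls were vehicle for no effect and minimum signal wells for full effect; inactives centre near -20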
Arbovirus inh = arbovirus infection inhibition. arbovirus infection cell-based antiviral screen. inhibition, % at 10 µM. 200,000 compounds, 0.37% hits. AID 1251;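 active = inhibition from about 30%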;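 also: bluetongue infection of BSR cells; cell survival read as ATP light after 72 h; 0% = infected wells without compound and 100% = uninfected wells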
RecA splice inh = Mtb RecA intein splicing inhibition; cell-free RecA intein splicing, fluorescence; AID 2221; inhibition, %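 (about 9 µM by stock and volumes)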; 290,000 compounds, 0.75% hits; P9WHJ3; in the data active = inhibition above about 30%; inconclusive = no clear call, values can overlap the other calls;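 also: 0% = vehicle wells and 100% = reference inhibitor control wells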
Target sequence (P9WHJ3 whole entry, looked up, canonical isoform): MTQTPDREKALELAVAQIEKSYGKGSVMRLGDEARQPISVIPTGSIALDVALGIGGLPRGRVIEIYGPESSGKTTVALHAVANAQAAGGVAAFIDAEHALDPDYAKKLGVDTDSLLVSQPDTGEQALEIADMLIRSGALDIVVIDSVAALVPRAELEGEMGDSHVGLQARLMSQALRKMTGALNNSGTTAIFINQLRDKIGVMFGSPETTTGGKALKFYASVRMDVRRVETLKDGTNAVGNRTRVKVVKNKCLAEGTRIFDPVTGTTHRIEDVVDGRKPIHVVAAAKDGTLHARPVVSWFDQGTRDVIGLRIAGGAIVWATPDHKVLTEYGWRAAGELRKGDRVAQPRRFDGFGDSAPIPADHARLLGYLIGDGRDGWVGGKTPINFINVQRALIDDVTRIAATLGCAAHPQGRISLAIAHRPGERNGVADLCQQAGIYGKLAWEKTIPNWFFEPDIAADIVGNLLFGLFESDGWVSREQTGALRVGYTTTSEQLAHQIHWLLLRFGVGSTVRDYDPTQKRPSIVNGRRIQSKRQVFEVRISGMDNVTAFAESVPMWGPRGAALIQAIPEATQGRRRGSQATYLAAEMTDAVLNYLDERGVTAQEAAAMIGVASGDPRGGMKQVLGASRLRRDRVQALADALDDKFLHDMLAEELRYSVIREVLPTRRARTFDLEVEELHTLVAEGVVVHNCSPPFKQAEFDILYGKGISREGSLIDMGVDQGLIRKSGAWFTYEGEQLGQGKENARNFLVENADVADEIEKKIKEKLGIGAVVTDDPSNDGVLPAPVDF
Mtb betalactam = beta-lactam sensitization of Mtb H37Rv. M. tuberculosis H37Rv growth with meropenem, percent inhibition; hits of this screen are not shown here. inhibition, % at 25 µM. 330,000 compounds, 0.27% hits. AID 434955;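 active = about 74% or more and at least 40 points above the plate without the antibiotic, then above 30% in a dose series; inconclusive = first-round hits that could not be retested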;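 also: growth measured after seven days incubation then overnight dye step; 0% = bacteria only wells and 100% = bacteria with antibiotic; twin plates without the antibiotic show which effects depend on it; some results filed as inactive read as strong as hits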
Mtb growth = M. tuberculosis H37Rv growth inhibitors, H37Rv strain (AID 1626); M. tuberculosis H37Rv growth inhibition; higher % means a stronger effect; inhibition, % at 10 µM; hits with a dose series show IC50 in µM; 220,000 compounds, 0.95% hits;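 active = confirmed in a dose series; inconclusive = inhibition above 80% but not taken into the dose series; inactive = below 80% or under 30% at every dose of the series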;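 also: bacteria incubated seven days before Alamar blue readout; 0% = bacteria only wells and 100% = bacteria with antibiotic wells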
Arbovirus inh repeat = recorded beside Arbovirus inh, whose call it bears; inhibition, %; measured here: 10K subset replicate screen; many hits read low in the repeat;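 first of two repeat runs on a subset; 0% = infected and 100% = uninfected wells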
An asterisk follows results filed as active; ? = inconclusive; · = not tested or not shown.

SMILES | YopH inh | Arbovirus inh | RecA splice inh | Mtb betalactam | Mtb growth | others
O=C(OCc1nc2ccc(Cl)cc2n1CCO)c1ccccc1 | -26 | 5 | 6.9 | -2 | 4%
O=C(CC(=O)c1ccccc1)Nc1cccnc1 | -23 | 1 | 0.8 | -6 | 8%
COCCC(=O)N1CCC(Oc2ccc(C(=O)NCc3ccon3)cc2)CC1 | · | · | 0.4 | -7 | ·
CCn1ccnc1CNC(=O)CC1C(=O)NCCN1Cc1ccccc1F (centres undefined) | · | 3 | -2.4 | -9 | -7%
CCN(CC(=O)NCc1cccs1)C(=O)c1cccc(S(=O)(=O)NC)c1 | · | · | -2.4 | 0 | ·
COC(=O)c1sc(N)c(C(=O)OC)c1COC(=O)CNS(=O)(=O)c1ccc(C)c(C)c1 | -18 | 5 | 2.0 | 3 | 3%
Cc1onc(-c2ccccc2)c1C(=O)N/N=C/c1ccc(O)c([N+](=O)[O-])c1 | · | · | -1.6 | 0 | ·
O=C(O)CCC(=O)Nc1ccc(N=Nc2ccccc2)cc1 | · | 8 | 2.3 | · | -10%
CCCC(=O)Nc1ccc(Cl)c(NC(=O)c2cccnc2Cl)c1 | -18 | 7 | 0.8 | -4 | -3%
CC(=O)N1N=C(c2c(-c3ccccc3)c3cc(C)ccc3[nH]c2=O)CC1c1ccco1 (centres undefined) | -14 | -12 | 5.1 | 58 | -8%
CCc1ccc(C(C)NC(=O)Cn2cnc3c(=O)n(C)c(=O)n(C)c32)cc1 (centres undefined) | -18 | 3 | -3.9 | 2 | -9%
O=c1oc2ccc(Cl)cc2nc1/C=C(\O)c1ccco1 | · | · | -1.8 | 99 | 12%
O=C(COC(=O)CSc1ccc2ccccc2c1)NC1CCCC1 | -35 | -3 | 1.1 | 7 | 8%
CCOCC(=O)Nc1nnc(COC)s1 | -11 | 1 | 2.1 | -2 | -3%
O=C(/C=C/c1ccc(Cl)c(Cl)c1)Nc1cccnc1 | · | · | 1.4 | -2 | ·
COc1ccc(S(=O)(=O)NNC(=O)C(=O)NNc2ccccn2)cc1 | · | · | -2.6 | -2 | -4%
CC(=O)Oc1cc(O)c2c(=O)c(OC(C)=O)c(-c3ccc(OC(C)=O)c(OC(C)=O)c3)oc2c1 | · | · | -0.9 | 7 | -6%
COc1ccc(S(=O)(=O)N(C)c2ccc(C(=O)Nc3c(C)n(C)n(-c4ccccc4)c3=O)cc2)cc1 | · | · | -2.4 | -4 | ·
O=C(O)C1CC(=O)N(Cc2cccs2)C1 (centres undefined) | -30 | 10 | -2.8 | -1 | 0%
CCOC(=O)c1c(S(=O)(=O)NCC(=O)NCc2ccccc2)c(C)n(C)c1C | · | · | -1.7 | -7 | ·
O=C(c1ccc2nc(N3CCOCC3)sc2c1)N1CCN(C(=O)c2ccco2)CC1 | -39 | 4 | -5.1 | -2 | 7% | Arbovirus inh repeat=-3
Cc1cccc(CSc2nnc3c(n2)[nH]c2ccccc23)c1 | · | · | 6.5 | -3 | -7%
CC1(C)CC(NC(=O)C23CCC(C)(/C(=N/O)C2)C3(C)C)CC(C)(C)N1 (centres undefined) | -52 | · | 2.5 | -5 | -1%
CCCCCN(C(=O)CCC(=O)OCC(=O)c1ccc(C(C)(C)C)cc1)c1c(N)n(CCCC)c(=O)[nH]c1=O | · | · | -0.2 | -1 | ·
OCCNCc1cccc(OCc2ccccc2Cl)c1 | · | -11 | 2.1 | 1 | 6%

The closing five entries of the part above are carried over, then new ones follow.
SMILES | YopH inh | Arbovirus inh | RecA splice inh | Mtb betalactam | Mtb growth | others
O=C(c1ccc2nc(N3CCOCC3)sc2c1)N1CCN(C(=O)c2ccco2)CC1 | -39 | 4 | -5.1 | -2 | 7% | Arbovirus inh repeat=-3
Cc1cccc(CSc2nnc3c(n2)[nH]c2ccccc23)c1 | · | · | 6.5 | -3 | -7%
CC1(C)CC(NC(=O)C23CCC(C)(/C(=N/O)C2)C3(C)C)CC(C)(C)N1 (centres undefined) | -52 | · | 2.5 | -5 | -1%
CCCCCN(C(=O)CCC(=O)OCC(=O)c1ccc(C(C)(C)C)cc1)c1c(N)n(CCCC)c(=O)[nH]c1=O | · | · | -0.2 | -1 | ·
OCCNCc1cccc(OCc2ccccc2Cl)c1 | · | -11 | 2.1 | 1 | 6%
CC1(C)CC(C#N)(N2CCOCC2)CCO1 (centres undefined) | -26 | 6 | 1.6 | 0 | 1%
Cc1cccc(Cn2nc(C)cc2NC(=O)Cn2cc([N+](=O)[O-])cn2)c1 | · | -4 | -1.3 | 1 | 4%
CCOC(=O)N1CCN(C(=O)c2cc(-c3ccc(F)cc3)[nH]c2C)CC1 | -4 | 15 | · | 2 | -6%
S=C(NCc1cccs1)Nc1cccc(Cl)c1 | -11 | -2 | 2.9 | -6 | -1%
CCS(=O)(=O)N1CCCC(C(=O)Oc2ccc(Br)cc2)C1 (centres undefined) | · | · | 5.3 | 1 | ·
CCOc1ccc(CCNC(=O)COC(=O)COc2ccc(Br)cc2)cc1OCC | · | · | -1.6 | -20 | ·
COc1ccccc1C(=O)Nc1nnc(SCC(=O)NC2CCCC2)s1 | · | · | 3.4 | 5 | ·
Cc1ccc(S(=O)(=O)NNC(=S)Nc2ccc(Cl)cc2)cc1 | · | · | 2.5 | -6 | -9%
Cc1cc(/C=C2/SC(=S)N(c3ccc([N+](=O)[O-])cc3)C2=O)c(C)n1-c1cccnc1 | -14 | 15 | 1.8 | 44 | 6%
CCOC(=O)c1ccc(Nc2ncnc3ccc(C)cc23)cc1 | -23 | -4 | -0.2 | -4 | 8%
CCN(CC)CCCC(C)NC(=O)c1c(NC(=O)c2ccccc2)sc2c1CCCC2 (centres undefined) | · | · | -3.1 | 4 | ·
COc1ccc(NC(=O)C(C/C=C(/C)Cl)C(C)=O)cc1 (centres undefined) | 0 | -7 | 0.3 | 3 | -7%
CCOc1ccc(NC(=O)CC2C(=O)NCCN2C(=O)Nc2ccccc2)cc1 (centres undefined) | · | · | 3.6 | ? | ·
Cc1nn(Cc2ccc(Cl)cc2)c(C)c1NC(=O)c1cc(-c2ccc3c(c2)OCO3)on1 | -35 | -27 | 2.0 | -7 | 2%
CCC(C)N1C(=O)/C(=C/c2c(NCCCOC(C)C)nc3c(C)cccn3c2=O)SC1=S (centres undefined) | 3 | -4 | · | 8 | 3%
O=C(O)c1cc(-c2cccs2)nc2ccc(Br)cc12 | · | · | -1.0 | 1 | ·
O=P(C(Cl)Cl)(N1CCCCC1)N1CCCCC1 | -28 | 5 | -9.0 | 5 | -4%
CCOCC(O)CSCc1ccc(Cl)cc1 (centres undefined) | -19 | 4 | -1.3 | -7 | -11%
CCOC(=O)/C(=N\O)C1=NC(C)(C)Cc2ccccc21 | -23 | 5 | -1.5 | -1 | -7%
O=C(c1cnc(Cl)c(Cl)c1)N1CCC(Cc2ccccc2)CC1 | · | 8 | 4.9 | 4 | 6%
Cc1ccc(N(CC(=O)NC2CCCC2)C(=O)CCC(=O)Nc2nccs2)cc1C | · | · | -0.5 | -1 | ·
Nc1ccc(Nc2ccc([N+](=O)[O-])cc2[N+](=O)[O-])cc1 | · | 2 | 5.7 | 2 | 9%
C/C(=N\N1CCN(c2ccc(Cl)cc2)CC1)c1cccc([N+](=O)[O-])c1 | · | 0 | 1.6 | -4 | 2%
CN(C)c1ccc(C(=S)N2CCN(c3ccc([N+](=O)[O-])cc3)CC2)cc1 | · | · | -11 | -9 | 9%
CCCCOc1ccc(C(C)NC(=O)CCS(=O)(=O)Cc2ccc(Cl)cc2)cc1 (centres undefined) | -6 | -9 | -0.3 | 8 | 8%
SMILES | YopH inh | Arbovirus inh | RecA splice inh | Mtb betalactam | Mtb growth | others
O=C(CCCc1nc2ccccc2s1)N1CCN(c2ccccc2)CC1 | -9 | -23 | 4.1 | -10 | 0%
O=C1CC(=O)N(Cc2ccco2)C(=S)N1 | -34 | 19 | 2.1 | -3 | -6%
CCCCS(=O)(=O)N1CCN(S(=O)(=O)c2cccs2)CC1 | · | · | -2.4 | -5 | ·
COc1ccc(CNC(=O)C2CC(C)=CCC2C(=O)O)cc1 (centres undefined) | · | · | -0.2 | 5 | ·
COc1ccc(C)cc1NC(=O)C(=O)c1cn(CC(=O)N2CCCC2)c2ccccc12 | · | · | -3.1 | 1 | ·
CCOc1ccccc1NC(=O)n1ncc2c(C)cccc21 | · | · | -1.3 | 4 | ·
COc1cccc(/C=N/NC(=O)c2ccoc2C)c1O | · | · | -1.7 | 70 | -13%
C/C(=N\NC(=O)CO/N=C(\C)c1cccs1)c1ccc(N)cc1 | · | · | 1.8 | -1 | -1%
COc1ccc(CCNC(=O)COc2cc(O)c3c(c2)OC(C)(C)CC3=O)cc1OC | · | · | -1.7 | 1 | ·
CCc1cccc2c(C=C(C#N)C#N)cn(CC(=O)N3CCCCC3)c12 | -44 | -9 | -3.6 | -4 | -9%
O=C(NN=C1CCCCCC1)c1ccc(Cl)s1 | · | · | -0.2 | -3 | ·
CCN1CCN(Cc2ccc(OCc3ccccc3)cc2)CC1 | 21 | -21 | -1.9 | -6 | -7%
COc1cc(NC(=O)Nn2cnnc2)cc(OC)c1OC | · | · | -1.2 | -3 | ·
Cc1[nH]c2ccccc2c1C1=CN2CCS(=O)(=O)N=C2S1 | -16 | 5 | -1.8 | -2 | 3%
O=C(CSc1nnc(SCc2cccc3ccccc23)s1)c1ccc2c(c1)OCO2 | -30 | -20 | -3.4 | -16 | ·
Cc1ccc(-n2nc3c(=O)n(CC(=O)NC(C)CCc4ccccc4)nc(C)c3c2C)cc1 (centres undefined) | · | · | -6.1 | -13 | ·
CCOc1ccc(N2C(=O)CC(C(C)c3ccccc3)C2=O)cc1 (centres undefined) | · | · | 0.9 | 6 | ·
O=C1NC(=O)C2C3c4ccccc4C(c4ccccc43)C12 (centres undefined) | -45 | 9 | -2.2 | 4 | -9%
Cc1c(Cl)cccc1NC(=O)N1CCCN(c2nc(-c3ccccc3)ns2)CC1 | · | · | -0.4 | -10 | -6%
CCC(C(=O)N1CCc2ccccc2C1)n1nc(C)n2c(cc3occc32)c1=O (centres undefined) | -37 | -3 | -0.6 | -10 | 1%
COc1ccc(Cc2nc3ccc(C(=O)NCCn4cccn4)cc3o2)cc1 | · | · | -4.7 | 4 | ·
O=C(Cn1cnc2c(nnn2-c2ccccc2)c1=O)N1CCC(Cc2ccccc2)CC1 | 0 | 1 | 2.7 | 17 | 5.8µM* | Arbovirus inh repeat=0
CCCCCC(C)NC(=O)c1ccoc1C (centres undefined) | -12 | 3 | 0.0 | -1 | -1%
FC(F)(F)c1cccc(OCCN2CCN(Cc3ccccc3)CC2)c1 | -5 | -18 | 1.0 | 7 | 11%
COc1ccc(-c2nnc3n2CCCCC3)cc1 | · | · | 0.1 | -3 | ·
SMILES | YopH inh | Arbovirus inh | RecA splice inh | Mtb betalactam | Mtb growth | others
CCc1nn(C(C)C(=O)NCCc2ccccc2)c(=O)c2cc3occc3n12 (centres undefined) | · | · | 5.4 | -4 | ·
CCCN(CC1CC1)S(=O)(=O)c1ccc(S(N)(=O)=O)cc1 | -3 | -2 | 0.8 | 0 | -2% | Arbovirus inh repeat=6
O=c1c2ccccc2nnn1CSc1ncnc2ccccc12 | -23 | -3 | 6.0 | 2 | -3%
COc1ccc(Cl)cc1NS(=O)(=O)c1c(C)[nH]c(C)c1C(=O)N1CCCCC1 | · | · | -1.4 | 7 | ·
CC(=O)c1ccc(N2CCN(Cc3nc4ccccc4[nH]3)CC2)cc1 | · | · | 2.7 | -1 | ·
CCCN(CCC)C(=O)Cn1c(=O)c2sccc2n2c(=S)sc(-c3ccccc3)c12 | · | 1 | 0.9 | ? | ·
CCC1=C(c2cc(OC)c(OC)c(OC)c2)C2(CCCC2)C(=O)O1 | · | · | 2.1 | -2 | ·
CCNC(=O)O/N=C1\CCCCC1c1ccc([N+](=O)[O-])cc1[N+](=O)[O-] (centres undefined) | · | · | -8.3 | 1 | ·
O=C(COC(=O)CCCSc1nc2ccccc2[nH]1)NC(=O)NC1CCCC1 | -11 | -3 | 1.9 | -8 | -13%
CCc1ccc(N2CC(C(=O)OCC(=O)Nc3cc(C)on3)CC2=O)cc1 (centres undefined) | -30 | 7 | 0.5 | 6 | -9%
Cc1cc(C(c2cc(C)c(N)c(C)c2)c2ccco2)cc(C)c1N | · | · | 6.1 | -5 | ·
NC(=O)[C@@H]1CCCNc2c(I)cc([N+](=O)[O-])cc2C(=O)N[C@@H](CO)C(=O)N[C@@H](Cc2ccc(O)cc2)C(=O)N1 | -23 | 2 | -0.1 | -12 | -2%
CCOC(=O)c1c(NC(=O)CSc2ccccc2C(=O)O)sc(C)c1C | · | 33* | -2.0 | -8 | -8%
Cc1cc(C)c2c(CC(=O)NN(C)C)coc2c1 | · | 5 | 0.6 | 8 | 9%
O=C(N/N=C/c1ccc(O)cc1)NC12CC3CC(CC(C3)C1)C2 | · | · | 5.4 | 9 | ·
O=C1CC(C(=O)N(c2ccc(F)cc2)C(C(=O)NC2CCCC2)c2ccccn2)CS1 (centres undefined) | -15 | 0 | -0.6 | -18 | -1%

Some of the compounds tested. The share of hits here may be higher or lower than overall.
